A1 inh – inhibitors of the anti-apoptotic protein A1, read as caspase activation | MEF A1-2A-BIM cells, Caspase-Glo 3/7 luminescence, 3 h; percent of clofoctol response, vehicle zero | caspase activation, % (no concentration beside the values) | 0.066% of 330,000 active;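 active means over half of replicate activation scores above 10%, or exactly half above 10 with the replicate mean above 10; inconclusive means replicate mean below 10 yet half the replicates above 10; inactive means over half of replicates below 10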;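 further: wells of about 30 µL received 50 nL stock; many hits fall short of the cut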
Ecoli rRNA inh – inhibitors of bacterial rRNA selective over humanized ribosomes; 1.6% of 350,000 active; E. coli WT GFP vs humanized-ribosome RFP mutants, fluorescence, 24 h; active compounds read low; DMSO median 0, no signal -100; GFP signal change (wild-type ribosome), % (concentration not given with the values);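 active means significant combined selectivity score with lowered wild-type GFP, culture density cut under 30%, mutant RFP and density less affected; inactive means any of these conditions unmet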; further: one replicate is shown; some compounds called inactive have numbers as strong as hits
UCH37 DUB inh – blocks the human deubiquitinase UCH37; purified proteasome/UCH37, Ub-AMC cleavage fluorescence; inhibition, % (concentration not given with the values); 0.33% of 330,000 active; AID 588478;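 active means mean of two replicates above 20%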;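 further: 0% = compound-free wells with enzyme and 100% = wells lacking proteasome; stock transfer was 100 nL into about 20 µL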
Target sequence (Q9Y5K5 whole entry, looked up): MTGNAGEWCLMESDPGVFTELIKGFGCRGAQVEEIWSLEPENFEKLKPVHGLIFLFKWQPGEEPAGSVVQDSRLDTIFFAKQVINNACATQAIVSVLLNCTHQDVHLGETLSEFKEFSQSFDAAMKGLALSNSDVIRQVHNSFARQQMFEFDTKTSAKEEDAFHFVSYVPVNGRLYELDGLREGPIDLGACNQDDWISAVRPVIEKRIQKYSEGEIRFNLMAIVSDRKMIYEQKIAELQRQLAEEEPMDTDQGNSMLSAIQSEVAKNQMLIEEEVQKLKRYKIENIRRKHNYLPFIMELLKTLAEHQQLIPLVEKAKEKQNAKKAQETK
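System: Proteasome-associated human UCH37 deubiquitinase; Input: 0.15 nM proteasome in added enzyme buffer; Also added: Ub-AMC substrate from 1 µM stock; Incubation: 30 min compound-proteasome preincubation then 25 min substrate reaction, room temperature; Detection: fluorescence, ex 355 nm, em 460 nm; Read-out: % inhibition of Ub-AMC cleavage fluorescence; Benchmarks: no-proteasome and no-compound wells.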
MLL AF4-AF9 inh – MLL-AF4/AF9 protein interaction inhibition; 0.47% of 350,000 active; AlphaScreen, biotin-AF4 peptide binding to FLAG-AF9; inhibition, % at 10 µM; P42568; AID 651704;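 active means every replicate reaching a set inhibition limit, whatever the replicate mean, cut at about 25% in these data; inconclusive means mean inhibition reaches that limit but some replicates miss it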;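 further: 0% = plate neutral control median and 100% = total signal loss; the record names both 10 and 1 µM as test concentration; the first replicate is given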
Target sequence (P42568 whole entry, looked up): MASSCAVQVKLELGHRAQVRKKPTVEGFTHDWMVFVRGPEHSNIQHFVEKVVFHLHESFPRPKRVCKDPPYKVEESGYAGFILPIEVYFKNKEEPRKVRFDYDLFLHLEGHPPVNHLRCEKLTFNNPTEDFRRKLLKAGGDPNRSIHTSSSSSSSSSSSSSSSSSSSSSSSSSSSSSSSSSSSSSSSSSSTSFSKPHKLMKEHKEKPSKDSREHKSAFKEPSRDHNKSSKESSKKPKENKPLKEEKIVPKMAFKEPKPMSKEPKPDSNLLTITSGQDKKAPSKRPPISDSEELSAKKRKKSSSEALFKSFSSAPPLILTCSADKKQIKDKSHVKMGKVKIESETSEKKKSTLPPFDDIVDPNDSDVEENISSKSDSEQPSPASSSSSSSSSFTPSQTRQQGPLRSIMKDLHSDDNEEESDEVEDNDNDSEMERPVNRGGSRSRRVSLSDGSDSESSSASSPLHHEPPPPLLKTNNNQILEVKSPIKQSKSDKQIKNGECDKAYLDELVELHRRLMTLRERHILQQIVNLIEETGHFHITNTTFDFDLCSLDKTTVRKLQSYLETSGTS
Ecoli growth – E. coli growth inhibition | Escherichia coli growth, OD600, 23 h; active compounds read low | 0.21% of 330,000 active | AID 1053175 | OD600 absorbance (concentration not given with the values);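 active means OD600 absorbance below the run mean of sample wells minus 3.6 SD, in any replicate, cut at about 0.56 in these data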;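 further: stock transfer was 300 nL into about 60 µL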
FGF22 binding – FGF22 (human) thermal shift binding; 1.5% of 340,000 active; recombinant FGF22 thermal shift, SYPRO orange fluorescence; percent of sucrose octasulfate shift, DMSO zero; AID 651658; calls only at 9.99 µM;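 active means melting point raised past a set limit in the mean and every replicate; inconclusive means no clear call; three in four hits are not shown here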
Target sequence (Q9HCT0 whole entry, looked up): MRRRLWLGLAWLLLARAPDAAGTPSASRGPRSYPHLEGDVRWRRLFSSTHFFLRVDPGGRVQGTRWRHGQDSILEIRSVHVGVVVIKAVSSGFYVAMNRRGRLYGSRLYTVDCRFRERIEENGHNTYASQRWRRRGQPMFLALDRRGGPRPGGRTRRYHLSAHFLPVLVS
Beta cell apopt – beta cell apoptosis inhibition. INS-1E cytokine-induced death, ATP luminescence, 48 h; percent of positive-control rescue, neutral wells zero. protection from apoptosis, % (concentration not given with the values). 0.8% of 300,000 active. AID 435005;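 active means all replicates at 75% or more, or half of them and the mean; inconclusive means half reach 75% but not the mean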;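 further: 0% = cytokine-treated negative control wells and 100% = positive control rescue; higher means more ATP so stronger rescue from cytokine killing; wells of about 40 µL received 100 nL stock; the first replicate is given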
T cruzi repl – T. cruzi replication inhibition; T. cruzi beta-gal in NIH3T3, luminescence, 90 h; inhibition, % (concentration not given with the values); 1.4% of 300,000 active;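 active means mean inhibition across valid replicates above about 55%, limit read from the data; inconclusive means mean below that limit but half or more replicates reach it; inactive means mean below it, under half of replicates reach it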;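 further: signal also drops with host cell toxicity which is not excluded here; 0% = plate median of DMSO wells and 100% = zero luminescence signal; higher percent means less beta-gal luminescence so fewer parasites; stock transfer was 50 nL into about 50 µL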
Ecoli rRNA inh OD600 – further read-out of Ecoli rRNA inh, marked with its call; OD600 change, %; measured here: OD600 growth;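 optical density of the mix in the first replicate; 0 = DMSO median and -100 = no signal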
Ecoli rRNA inh RFP – recorded beside Ecoli rRNA inh, whose call it bears; RFP signal change, %; measured here: RFP humanized mutant strains;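 first replicate; 0 = DMSO median and -100 = no signal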
* = called active by the depositor; i = inactive; u = inconclusive; x = not tested or not shown; & = joins results of further samples. Some of the compounds tested; count on the stated rates, not on these rows.

SMILES	A1 inh	Ecoli rRNA inh	Ecoli rRNA inh OD600	Ecoli rRNA inh RFP	UCH37 DUB inh	MLL AF4-AF9 inh	Ecoli growth	FGF22 binding	Beta cell apopt	T cruzi repl
COc1cc(CC(=O)OCC(=O)N2CCCCC2C)cc(OC)c1OC (centres undefined)	0.5	6	8	-3.7	-0.1	-1.0	0.67	x	-8	-29
Cc1nc(C)c(NC(=O)OC(C)C)cc1NC(=O)OC(C)C	0.8	8	1	-1.9	2.0	-2.6	0.7	i	-6	-1
N#Cc1c(N)n[nH]c1-c1cc2c([nH]1)CCCC2	0.5	x	x	x	3.1	x	0.71	x	-10	-2
COC(=O)c1ccc(C(=O)OC)c(NC(=S)N2CCN(C)CC2)c1	-0.1	3	7	-1.8	-0.2	-3.8	0.71	i	-1	-2
CC(=O)Nc1cccc(OCC(=O)NCCC2=CCCCC2)c1	0.2	3	-2	-0.8	-4.9	-4.5	0.7	i	-7	9
Cn1cc(Cl)cc(C(=O)Nc2ccccc2)c1=O	-1.8	-4	2	6.0	-0.9	-0.4	0.68	i	1	-11
Cc1ccc(S(=O)(=O)N2c3ccccc3OCC2c2ccccc2)cc1 (centres undefined)	-0.3	x	x	x	1.9	x	0.75	x	-2	-6
CSCCC(NC(=O)COc1ccccc1)C(=O)NCCOc1ccc(C)cc1 (centres undefined)	-0.1	2	-6	1.9	-0.3	1.0	0.66	i	-5	4
O=C(CCCc1ccccc1)NCc1ccc2c(c1)OCO2	0.4	-4	-3	1.8	6.0	3.6	0.63	i	-7	-8
CCc1noc(C)c1C(=O)NNC(=O)COc1ccccc1C	-0.1	3	0	1.4	1.1	-1.3	0.66	i	2	x
c1ccc(-c2nc3c(ccc4ccccc43)[nH]2)nc1	-5.8	x	x	x	-16	x	0.72	x	11	-6
O=C(NC1CCCCC1)C(c1ccccc1F)N(Cc1ccco1)C(=O)c1ccccn1 (centres undefined)	-0.1	2	0	2.0	1.6	2.7	0.71	i	-1	18
O=C(CSc1nc2nccnc2c(=O)n1Cc1cccs1)Nc1ccccc1	1.3	-9	-3	0.0	4.4	0.5	0.66	i	-19	10
O=C(NCC(O)c1ccccc1)c1ccccc1 (centres undefined)	-2.1	14	11	1.5	2.2	-1.2	0.67	i	-5	-3
CC1CC(Nc2ccccc2)=CC(=O)O1 (centres undefined)	-0.2	x	x	x	2.4	x	0.67	x	0	1
COc1ccc(Cl)cc1C(=O)C1CCCN(Cc2cnc(N3CCOCC3)s2)C1 (centres undefined)	-0.3	-19	-17	-3.1	3.5	3.8	0.73	i	x	72*
Cc1oc(-c2cccs2)nc1CN1CC[C@@](O)(c2ccccc2)[C@H]2CCCC[C@@H]21	-0.7	x	x	x	2.8	x	0.67	x	2	32
CC(=O)Nc1ccc(OC(=O)Cc2ccc(Cl)cc2)cc1	0.0	27	9	5.3	5.4	-2.2	0.7	i	-1	-5
Cc1ccccc1NC(=O)C(=O)NNC(=O)COc1ccc2ccccc2c1	-0.4	6	12	-0.8	x	-8.6	x	i	-3	-10
O=[N+]([O-])c1ccc(SCCc2ccncc2)cc1	-1.0&0.6	4	-4	1.1	10&6.5	-1.0&0.9	0.63&0.6	i	-7&-6	50&44
O=c1c2ccccc2nc(/C=C/c2c[nH]c3ccccc23)n1-c1ccc([N+](=O)[O-])cc1	2.8	16	16	-4.4	x	1.9	x	i	4	40
COc1ccc(Br)cc1/C=N/NC(=O)c1ccco1	0.6	14	12	-3.3	x	-1.1	x	i	x	-11
COc1ccc(C)cc1NC(=O)CC(NC(C)=O)c1ccccc1 (centres undefined)	1.0	13	14	-0.9	1.4	0.4	0.65	x	0	-7
O=C(C1CCCN(S(=O)(=O)c2cccc3nsnc23)C1)N1CC=C(c2ccccc2)CC1 (centres undefined)	-0.9	x	x	x	2.3	x	0.74	x	17	x
COC(=O)c1c(C)nn(-c2ccccc2)c1-n1cccc1	1.2	x	x	x	1.9	x	0.71	x	-10	-7
CCOC(=O)c1cc(-c2ccccc2)sc1NC(=O)COC	0.9	-7	5	-1.9	-6.3	-2.4	0.72	i	-37	33
COc1ccc(C(CC(=O)c2ccc(C)cc2)C(C#N)C#N)cc1OC (centres undefined)	0.2	x	x	x	8.4	x	0.64	x	-22	-40
C[C@@H]1CN([C@H](C)CO)C(=O)c2cc(NC(=O)NC3CCCCC3)ccc2O[C@H]1CN(C)S(C)(=O)=O	1.6	0&0	3&-2	-0.7&-4.4	2.4	-2.3&0.7	x	i	0	x
O=C(COC(=O)[C@@H]1CCCN1S(=O)(=O)c1ccccc1F)Nc1ccc(OC(F)F)cc1	-0.9	-19	-21	0.4	3.0	0.1	0.71	i	1	-8
CC(=O)Nc1ccc2c(c1)CCCC2	-0.7	11	-7	2.2	7.0	-2.1	0.64	i	2	x
Fc1ccc(C2=CC(c3ccco3)n3ncnc3N2)cc1 (centres undefined)	-1.4	x	x	x	-88	x	0.65	x	x	-15
CCN(CC)c1ccc(NC(=O)CN2CCN(c3ccc(F)cc3)CC2)cc1	0.2	x	x	x	5.5	x	0.73	x	-3	15
CC(C)OC(=O)CSc1ncnc2c1cnn2-c1ccccc1	-5.1	0	0	-0.8	0.3	-1.1	0.67	i	-4	3
CCOc1ccc(C(=O)OCC(=O)Nc2cccc(S(=O)(=O)N3CCCC3)c2)cc1	2.0	5	-8	2.8	3.9	-2.4	0.7	i	-1	x
O=C(c1cc2cc([N+](=O)[O-])ccc2s1)N1CCCCC1	-0.1	1	-8	-2.8	6.1	2.7	0.65	i	x	-7
CCN(CC)CCCNC(=O)c1cc(-c2ccc(Cl)c(Cl)c2)on1	0.2	-23	-14	22	3.0	12	0.64	i	1	29
CCN(CCCNC(=O)CNC(=O)Cn1cnc2ccccc2c1=O)c1cccc(C)c1	0.2	x	x	x	6.6	x	0.76	x	x	16
O=C(CSc1ncc(-c2ccc(F)cc2)n1Cc1ccco1)Nc1nccs1	0.6	x	x	x	1.6	x	0.74	x	x	-7
Cc1cc(Cl)cc(C)c1OCCCCN1CCOCC1	-0.7	x	x	x	0.1	x	0.71	x	0	11
CC1(C)CC2CC(C)(CN2C(=O)COC(=O)c2ccc(Cl)c(N)c2)C1 (centres undefined)	-0.8	15	7	-6.0	-9.8	0.8	0.73	i	5	-3
CCC(=O)c1c[nH]c(C(=O)NCCCn2ccnc2)c1	0.3	x	x	x	0.0	x	0.72	x	-9	-5
Cc1cc(C)cc(N(C(C)C(=O)NC2CCCC2)S(C)(=O)=O)c1 (centres undefined)	1.7	x	x	x	1.1	x	0.67	x	-8	-9
CN(C(=O)CSc1nnc(NC2CCCCC2)s1)C1CCS(=O)(=O)C1 (centres undefined)	-0.1	x	x	x	4.8	x	0.69	x	3	4
COc1cccc(C(=O)NNC(=O)c2cccnc2)c1	-0.7	5	3	-2.7	5.4	-5.3	0.68	i	-4	-20
CC1CCc2[nH]c3ccc(C(=O)N(C)CC(=O)Nc4ccc(F)cc4)cc3c2C1 (centres undefined)	0.0	-14	-17	-3.5	2.7	4.4	0.72	i	-3	-3
CN(C)C=NC(=O)c1cn(-c2ccc(F)cc2)c(=O)c2ccccc12	0.4	16	11	4.7	1.5	0.6	0.7	i	-4	3
CC1CCN(C(=O)CSc2nnc(-c3cc4ccccc4cc3O)n2Cc2ccco2)CC1	0.7	x	x	x	4.2	x	0.71	x	-25	-1
COc1nc(OC)nc(N2CCC(C(=O)NCC3CCCCC3)CC2)n1	0.7	x	x	x	1.8	x	0.69	x	3	7
Nc1c(N(CCC2=CCCCC2)C(=O)COc2ccc([N+](=O)[O-])cc2)c(=O)[nH]c(=O)n1Cc1ccccc1	x	-2	14	0.5	2.4	-1.0	0.74	i	x	x
CCN(Cc1ccccc1)S(=O)(=O)c1ccc(C(=O)N(CCCN(C)C)c2nc3cc4c(cc3s2)OCCO4)cc1	0.0	-4	-44	24	6.0	12	0.69	i	x	51
COc1ccccc1CNC(=O)C/C(C)=N/NC(=O)Cc1ccc(OC)c(OC)c1	-1.0	x	x	x	x	1.6	x	i	0	3
CCn1nc(NC(=O)c2cccnc2)c2cc3ccccc3nc21	0.1	x	x	x	-20	x	0.73	x	-16	-42
COC(=O)C1=C(C)NC(C)=C([N+](=O)[O-])C1c1ccccc1C(F)(F)F (centres undefined)	2.1&0.1	-4&-11	-5&-4	7.4&-2.4	2.4&1.1	6.5&7.4	0.7&0.7	i	-2&2	5
COc1ccc(S(=O)(=O)N2CCOCC2)cc1C(=O)NC1CCCCC1	-0.5	-3	2	-0.9	-0.1	-7.4	0.69	i	3	-1
CCCc1cc(=O)oc2cc(OCC(=O)N(C)C)c(Cl)cc12	0.2	x	x	x	-4.5	x	0.68	x	0	-12
CN(C)NC(=O)C(NC(=O)c1ccccc1)C12CC3CC(CC(C3)C1)C2 (centres undefined)	0.0	11	6	1.5	-0.6	-3.5	0.71	i	-3	-11
Cc1ccnc(NCc2c(O)ccc3ccccc23)c1	0.0	0	8	42	2.7	1.8	0.64	i	x	-7
Cc1ccc(S(=O)(=O)N2CC3CCCC2C3)cc1 (centres undefined)	-0.1	-10	-8	1.4	1.8	x	0.69	i	-1	-10
CN(CCc1ccccn1)C(=O)CCNC(=O)Cn1cnc2ccccc2c1=O	0.5	x	x	x	0.1	x	0.68	x	-3	0
O=C(CCNS(=O)(=O)c1ccc(Cl)cc1)N1CCN(Cc2ccccc2)CC1	0.7	x	x	x	3.0	x	0.69	x	-3	6

(listing goes on)
SMILES	A1 inh	Ecoli rRNA inh	Ecoli rRNA inh OD600	Ecoli rRNA inh RFP	UCH37 DUB inh	MLL AF4-AF9 inh	Ecoli growth	FGF22 binding	Beta cell apopt	T cruzi repl
Cc1csc(SCC(=O)Nc2oc(C)c3c(C)n[nH]c(=O)c23)n1	0.2	1	3	0.2	2.5	u	0.68	i	x	9
Cc1cccc(N2CCN(C(=O)C3CC(=O)N(C4CCCC4)C3)CC2)c1C (centres undefined)	0.3	3	-26	5.2	1.2	-1.3	0.74	i	2	-2
Cc1nn(-c2ccccc2)c(Cl)c1/C=N/O	0.2	1	-2	-0.2	x	-0.8	x	i	-2	-17
COc1ccc(-n2c(Cc3cccn3C)nnc2SCC(=O)Nc2ccc(C)cc2C)cc1	-0.1	-7	-6	-2.7	3.1	8.8	0.79	i	0	14
Cn1c(SCC(O)c2ccccc2)nnc1-c1ccc2ccccc2c1 (centres undefined)	-0.6	-16	-27	-3.1	5.2	1.9	0.68	i	-1	10
COc1ccccc1N(C(=O)NCc1ccccc1)C1=NCC(C)S1 (centres undefined)	x	-6	-23	0.0	4.6	-7.7	0.73	i	-11	17

Screening results: PubChem BioAssay, several laboratories
